Screens as filed in PubChem.
Vaccinia stage: blocks a specific stage of Vaccinia orthopoxvirus infection, primary screen, cell-based, single point. Vaccinia-infected cells, mCherry/Venus stage reporter fluorescence; stronger effect = lower value; some inactives read as strong as hits. activity change (mCherry), % (test concentration not listed). 0.01% of 89,000 active. AID 1053133, 2014;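 active = mCherry past -33% and 40 or more points under the early reporter, replicates agreeing; inconclusive = past -33% without that gap or agreement; tested in A549 cells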;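 also: scaled between vehicle wells and reference inhibitor wells; 23 nL library stock went into each well; one replicate is shown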
Vaccinia stage Venus: second read-out of Vaccinia stage, no call of its own (marks repeat the call); activity change (Venus), %; measured here: Venus reporter, other viral stage;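 negative = less Venus signal; first of two replicates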
Numbers without * were called inactive; ? = inconclusive; . = not tested or not shown. A portion of the library. The share of hits here may be higher or lower than overall.

cpd	Compound	Vaccinia stage	Vaccinia stage Venus
1	Cc1nn(C)cc1NC(=O)C[C@@H]1CC[C@@H]2[C@@H](COc3ccc(NC(=O)C4CCOCC4)cc3C(=O)N2C)O1	13.7	13.6
2	O=C(N[C@@H]1C=C[C@@H](CC(=O)N2CCCCC2)O[C@@H]1CO)c1ccc2c(c1)OCO2	4.6	9.7
3	C[C@@H]1CN([C@H](C)CO)C(=O)c2c(c3ccccc3n2C)-c2ccccc2CO[C@@H]1CN(C)S(=O)(=O)Cc1ccccc1	-16.5	-14.1
4	CO[C@H]1CN(C)C(=O)c2cc(NC(=O)c3ccccc3)ccc2OC[C@H](C)N(C)C[C@H]1C	-0.2	0.9
5	COc1ccc(S(=O)(=O)N[C@@H]2CC[C@H](CC(=O)N3CCN(c4ccccc4)CC3)O[C@@H]2CO)cc1	-1.1	-7.8
6	CN(C)C(=O)c1ccc(-c2ccc([C@@H]3[C@H]4CN(C(=O)C5CCCC5)CCCCN4[C@H]3CO)cc2)cc1	-17.1	-16.1
7	C[C@@H]1CN([C@@H](C)CO)C(=O)c2cccc(NC(=O)c3ccc(-c4nccs4)cc3)c2O[C@H]1CN(C)Cc1ccc(C(=O)O)cc1	8.9	0.9
8	C[C@H]1CN([C@@H](C)CO)C(=O)c2cc(NC(=O)CCC(F)(F)F)ccc2O[C@@H]1CN(C)Cc1ccc(C(F)(F)F)cc1	-9.5	-9.5
9	C[C@H](CO)N1C[C@H](C)[C@H](CN(C)C(=O)Cc2ccccn2)Oc2ncc(-c3ccncc3)cc2C1=O	36.5	15.7
10	CCCN(C)C[C@H]1Oc2ncc(-c3ccccc3)cc2C(=O)N([C@@H](C)CO)C[C@H]1C	-16.5	-9.9
11	O=C(Nc1ccccc1)N[C@@H]1CC[C@@H](CCNC(=O)c2ccccc2F)O[C@H]1CO	-1.3	-0.1
12	O=C(C[C@H]1CC[C@H](NS(=O)(=O)c2ccccc2)[C@@H](CO)O1)NCc1ccncn1	3.4	11.7
13	Cc1ccc(S(=O)(=O)N[C@H]2CC[C@H](CC(=O)NCCc3ccncc3)O[C@@H]2CO)cc1	-1.8	3.0
14	C/C=C/c1cnc2c(c1)C(=O)N([C@H](C)CO)C[C@@H](C)[C@@H](CN(C)S(=O)(=O)c1ccccc1F)O2	3.0	5.9
15	O=C(NCC[C@@H]1CC[C@H](NS(=O)(=O)c2ccccc2)[C@H](CO)O1)c1ccc2c(c1)OCO2	5.1	6.6

Ordered by formula weight (falling): some entries from above.
cpd	Compound	Vaccinia stage	Vaccinia stage Venus
7	C[C@@H]1CN([C@@H](C)CO)C(=O)c2cccc(NC(=O)c3ccc(-c4nccs4)cc3)c2O[C@H]1CN(C)Cc1ccc(C(=O)O)cc1	8.9	0.9
4	CO[C@H]1CN(C)C(=O)c2cc(NC(=O)c3ccccc3)ccc2OC[C@H](C)N(C)C[C@H]1C	-0.2	0.9
11	O=C(Nc1ccccc1)N[C@@H]1CC[C@@H](CCNC(=O)c2ccccc2F)O[C@H]1CO	-1.3	-0.1
2	O=C(N[C@@H]1C=C[C@@H](CC(=O)N2CCCCC2)O[C@@H]1CO)c1ccc2c(c1)OCO2	4.6	9.7

Continuation:
cpd	Compound	Vaccinia stage	Vaccinia stage Venus
16	CCCNC(=O)N(C)C[C@H]1Oc2ncc(C#CC3CC3)cc2C(=O)N([C@@H](C)CO)C[C@H]1C	?	.
17	COC(=O)[C@@]1(CCS(=O)(=O)c2ccccc2)N=C(c2ccc(OCCCO)cc2)O[C@H]1c1ccccc1N=[N+]=[N-]	?	.
18	C[C@H]1CN([C@@H](C)CO)C(=O)Cc2cc(NS(=O)(=O)c3ccccc3)ccc2O[C@H]1CN(C)S(=O)(=O)c1ccccc1	0.8	-2.3
19	CO[C@H]1CN(C)C(=O)c2cc(NC(=O)Cc3ccccc3)ccc2OC[C@@H](C)N(C(C)=O)C[C@@H]1C	-5.1	5.0
20	COCC#Cc1ccc([C@H]2[C@H]3CN(S(=O)(=O)c4ccccc4F)CCCCN3[C@H]2CO)cc1	14.7	-6.0
21	C[C@H]1CN([C@@H](C)CO)C(=O)CCCn2nncc2CO[C@@H]1CN(C)S(=O)(=O)c1cccc(F)c1	33.8	32.6
22	C[C@@H]1CN([C@@H](C)CO)C(=O)c2cc(NS(=O)(=O)c3cccs3)ccc2O[C@H]1CN(C)S(=O)(=O)c1ccc(Cl)cc1	2.2	2.7
23	COCC#Cc1ccc([C@H]2[C@H]3CN(C(=O)C4CCC4)CC(=O)N3[C@H]2CO)cc1	-3.8	-4.7
24	C[C@@H]1CN([C@@H](C)CO)C(=O)c2cc(NC(=O)c3ccncc3)ccc2O[C@@H](C)CCCCO[C@@H]1CN(C)C(=O)Nc1cccc2ccccc12	20.6	19.4
25	COc1ccccc1NC(=O)N[C@@H]1CC[C@@H](CCn2cc(C3(O)CCCC3)nn2)O[C@H]1CO	-5.8	-2.5
26	C[C@H]1CN([C@@H](C)CO)C(=O)c2cccc(NC(=O)Nc3ccc(C(F)(F)F)cc3)c2O[C@H]1CN(C)Cc1ccc(Oc2ccccc2)cc1	?	.
27	COc1ccc(NC(=O)N(C)C[C@H]2Oc3c(NC(=O)NC4CCCCC4)cccc3C(=O)N([C@H](C)CO)C[C@@H]2C)cc1	3.6	7.8
28	C[C@@H]1CN([C@H](C)CO)C(=O)Cc2cc(NC(=O)Nc3ccccc3)ccc2O[C@@H]1CN(C)S(=O)(=O)c1ccccc1	2.1	-2.5
29	O=S(=O)(Cc1ccccc1)N1CCCCN2[C@H](C1)[C@@H](c1ccc(C#Cc3ccccc3)cc1)[C@@H]2CO	-5.5	-0.9
30	O=C(N[C@H]1CC[C@H](CCn2cc(C3(O)CCCC3)nn2)O[C@@H]1CO)C1CCCC1	-30.2	-21.0
31	CC(=O)N1[C@@H](CO)[C@@H](c2ccccc2)C12CN(C(=O)c1ccccn1)C2	6.8	11.8
32	C[C@@H]1CN([C@@H](C)CO)S(=O)(=O)c2ccc(C3=CCCCC3)cc2O[C@H]1CN(C)S(C)(=O)=O	-33.8	-24.0
33	COCC(=O)N(C)C[C@H]1[C@H](c2ccc(-c3cccnc3)cc2)[C@@H](CO)N1C(C)=O	14.4	13.0
34	COc1cccc(C(=O)Nc2ccc3c(c2)OC[C@@H](C)NC[C@@H](C)[C@@H](OC)CN(C)C3=O)c1	0.0	-11.5
35	C[C@@H]1CN([C@@H](C)CO)C(=O)c2cc(C#C[C@@H](C)O)cnc2O[C@H]1CN(C)CC1CCOCC1	6.7	2.1
36	COc1cccc(-c2ccc3n(c2=O)C[C@H]2[C@H](CO)[C@@H](C(=O)N(C)C)[C@@H]3N2C(=O)c2ccccn2)c1	13.5	0.0
37	CN1C(=O)c2cc(NC(=O)c3ccccc3Cl)ccc2OC[C@@H]2O[C@H](CC(=O)NCC(F)(F)F)CC[C@@H]21	-1.6	4.1
38	CCC(=O)Nc1ccc2c(c1)C(=O)N(C)C[C@@H](OC)[C@H](C)CN(Cc1ccccc1)[C@@H](C)CO2	-10.8	1.1
39	Cc1ccc(S(=O)(=O)N[C@@H]2CC[C@@H](CC(=O)O)O[C@@H]2CO)cc1	14.1	14.2
40	C[C@H]1CN([C@@H](C)CO)C(=O)Cc2cc(NS(=O)(=O)c3cccs3)ccc2O[C@@H]1CN(C)Cc1ccc(C(=O)O)cc1	9.8	5.3
41	COc1cccc(NC(=O)N2CC(=O)N3[C@H](CO)[C@H](c4ccc(C#CC5CCCCC5)cc4)[C@@H]3C2)c1	-34.1	-32.6
42	C/C=C/c1ccc2c(c1)O[C@H](CN(C)C(=O)CC1CC1)[C@H](C)CN([C@H](C)CO)S2(=O)=O	8.9	-2.1
43	OC[C@H]1[C@H](c2ccc(-c3cccnc3)cc2)[C@@H]2CN(CC3CCOCC3)CCCCN12	13.1	3.2
44	Cc1noc(C)c1NC(=O)Nc1ccc2c(c1)C(=O)N([C@@H](C)CO)C[C@@H](C)[C@@H](CN(C)C(=O)NC1CCCCC1)OCCCC[C@@H](C)O2	14.1	6.5
45	CCCNC(=O)Nc1ccc2c(c1)C(=O)N(C)C[C@H](OC)[C@H](C)CN(CCC)[C@@H](C)CO2	7.1	0.0
46	Cc1noc(C)c1NC(=O)N[C@@H]1CC[C@@H](CCNC(=O)C2CCCC2)O[C@@H]1CO	0.0	4.1
47	COc1ccc(CN(C)C[C@H]2Oc3ccc(NC(=O)C4CC4)cc3CC(=O)N([C@@H](C)CO)C[C@H]2C)cc1	-2.5	-10.5
48	CS(=O)(=O)N[C@@H]1C[C@@H]2O[C@@H](CO)CC[C@@H]2O[C@@H]1CCc1ccc(-c2ccccc2F)cc1	-30.8	-27.4
49	C[C@@H]1CN([C@@H](C)CO)S(=O)(=O)c2ccc(-c3cccc(C#N)c3)cc2O[C@@H]1CN(C)Cc1cccc(F)c1	-26.8	-20.1
50	CC(=O)N(C)C[C@H]1Oc2ncc(C#Cc3ccccn3)cc2C(=O)N([C@H](C)CO)C[C@H]1C	13.8	18.6
51	C[C@@H]1CN([C@@H](C)CO)C(=O)c2cc(NC(=O)Nc3ccccc3)ccc2O[C@@H]1CN(C)Cc1ccc(C(=O)Nc2ccccc2N)cc1	0.1	-0.6
52	COc1ccccc1CNC(=O)C[C@H]1C[C@H]2c3cc(NC(=O)Nc4ccccc4F)ccc3O[C@H]2[C@@H](CO)O1	10.5	12.1
53	CN1c2ccc(-c3ccccc3)cc2[C@@H]2[C@@H](CCN2S(=O)(=O)c2ccccc2F)[C@@H]1CO	?	.
54	O=C(C[C@H]1CC[C@@H]2[C@H](COC[C@@H](O)CN2S(=O)(=O)c2ccc(F)cc2)O1)N[C@@H]1CCN(Cc2ccccc2)C1	-21.3	-13.1
55	O=C(Cc1cccnc1)N1CC(=O)N2[C@H](C1)[C@H](c1ccc(C#CC3CC3)cc1)[C@@H]2CO	-11.2	-10.1
56	CC(=O)NCCCC[C@@H]1NC(=O)[C@@H]2C[C@H](C(=O)O)[C@H](c3ccc(O)cc3)N2C1=O	15.0	5.7
57	CN1c2ccc(Br)cc2[C@H]2[C@H](CCN2C(=O)Cc2cccnc2)[C@@H]1CO	0.5	6.1
58	Cc1noc(C)c1S(=O)(=O)Nc1cccc2c1O[C@H](CN(C)Cc1ccc(C(=O)Nc3ccccc3N)cc1)[C@H](C)CN([C@H](C)CO)C2=O	17.1	13.0
59	CC(C)CC#Cc1ccc2c(c1)O[C@@H](CN(C)Cc1ccncc1)[C@H](C)CN([C@H](C)CO)S2(=O)=O	?	.
60	O=C(C[C@@H]1CC[C@@H](NC(=O)C2CCOCC2)[C@@H](CO)O1)NCC1CC1	36.5	20.4

Single entries from above.
Entry for #49 under Vaccinia stage: -26.8
Entry for #48 under Vaccinia stage Venus: -27.4
Entry for #50 under Vaccinia stage Venus: 18.6
Entry for #56 under Vaccinia stage: 15.0

Carrying on:
cpd	Compound	Vaccinia stage	Vaccinia stage Venus
61	COc1ccc2c3c([nH]c2c1)[C@H](CO)N(Cc1ccccc1)CC31CCN(C(=O)c2ccccn2)CC1	16.5	14.5
62	COc1ccc(NC(=O)Nc2ccc3c(c2)C(=O)N([C@H](C)CO)C[C@@H](C)[C@H](CN(C)Cc2ccc(Cl)c(Cl)c2)O3)cc1	-14.1	-11.5
63	C[C@@H]1CN([C@@H](C)CO)C(=O)c2cc(NC(=O)CCCN(C)C)ccc2O[C@H]1CN(C)Cc1ccc(C(=O)O)cc1	9.0	5.4
64	CCC(=O)Nc1ccc2c(c1)C(=O)N(C)C[C@H](OC)[C@@H](C)CN(C(=O)c1ccccc1F)[C@@H](C)CO2	9.0	8.0
65	Cc1ccc(S(=O)(=O)N(C)C[C@H]2OCCCC[C@H](C)Oc3ccc(N(C)C)cc3C(=O)N([C@H](C)CO)C[C@H]2C)cc1	-17.8	-8.2
66	O=C1CN(S(=O)(=O)Cc2ccccc2)C[C@@H]2[C@@H](c3ccc(C#Cc4cccnc4)cc3)[C@H](CO)N12	-19.7	-15.5
67	COCC(=O)N1CC2(CN(Cc3ccccc3)C2)c2c(n(C)c3cc(OC)ccc23)[C@H]1CO	-4.4	-12.6
68	COc1ccc(NC(=O)N(C)C[C@H]2OCCCC[C@@H](C)Oc3ccc(NS(=O)(=O)c4ccc(Cl)cc4)cc3C(=O)N([C@@H](C)CO)C[C@@H]2C)cc1	?	.
69	C[C@@H]1CN([C@@H](C)CO)C(=O)c2cc(NC(=O)c3ccncc3)ccc2O[C@@H](C)CCCCO[C@H]1CN(C)S(=O)(=O)c1cn(C)cn1	0.4	5.0
70	C[C@H]1CN([C@@H](C)CO)C(=O)CCCn2cc(nn2)CO[C@@H]1CN(C)C(=O)Nc1ccnc(N2CCOCC2)c1	8.1	3.5
71	N#C[C@H]1[C@@H](c2ccc(C3=CCCC3)cc2)[C@@H](CO)N1S(=O)(=O)c1ccccc1	4.1	2.5
72	C[C@H]1CCCCO[C@H](CN(C)S(=O)(=O)c2ccc(F)cc2)[C@@H](C)CN([C@@H](C)CO)C(=O)c2cc(NC(=O)C3CCCCC3)ccc2O1	-29.6	-15.6
73	CC=Cc1ccc2n(c1=O)C[C@@H]1[C@@H](CO)[C@H](C(=O)N(C)C)N(C(=O)CC)[C@H]21 (mixture of isomers)	10.5	-0.6
74	CCCC(=O)Nc1ccc2c(c1)OC[C@H](C)N(Cc1nccs1)C[C@H](C)[C@H](OC)CN(C)C2=O	2.4	6.1
75	COc1cccc(S(=O)(=O)N2CCCCN3[C@H](C2)[C@@H](c2ccc(C#CCC(C)C)cc2)[C@@H]3CO)c1	-16.5	-20.9
76	COc1ccccc1-c1cn(CC[C@@H]2CC[C@H](NC(=O)C3CC3)[C@@H](CO)O2)nn1	-1.9	-1.0
77	C[C@H](O)C#Cc1cnc2c(c1)C(=O)N([C@H](C)CO)C[C@H](C)[C@@H](CN(C)C(=O)CN(C)C)O2	9.9	5.6
